MgrA DNA FP: S. aureus MgrA-DNA binding modulation; fluorescence polarization; inhibition, %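 (about 10 µg/mL by stock and volumes)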; hit rate 0.13% among 84,000;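 active means above 50% in either of two replicates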;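 further: 0% = protein plus DNA without compound and 100% = DNA alone without protein; higher means less MgrA bound to DNA so lower polarization; one replicate is shown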
S aureus helic: blocks Staphylococcus aureus DNA helicase | purified S. aureus helicase, fluorescence unwinding assay; about half of the hits fall short of the stated cut | inhibition, %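 (tested at about 80 µM)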 | hit rate 0.05% among 120,000;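 active means both duplicates at 50% or more, or one of them with a favoured structure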;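 further: 0% = mean of negative control wells and 100% = mean of positive control wells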
* = called active by the depositor; . = not tested or not shown; & = joins results of further samples. Some of the compounds tested, so the mix of outcomes need not match the whole.

MgrA DNA FP | S aureus helic | mol
3.1&-0.9 | . | c1ccc([C@H]2CN3CCSC3=N2)cc1
-0.3 | . | O=C1CCOc2ccc(F)cc21
-2.2 | 3.0 | CC(C)NC(=O)C(C)Oc1ccccc1 (stereo not drawn)
8.2 | 22.0 | O=C(O)c1cccc(-n2cccc2C=C2C(=O)c3ccccc3C2=O)c1
2.5 | 10.0 | O=C(O)C1CCCCC1C(=O)Nc1nncs1 (stereo not drawn)
. | -14.0 | Cc1ccc(C)c(Cn2c(=O)n(CCCC(=O)NCc3ccco3)c(=O)c3sccc32)c1
-0.4 | . | Cc1ccc(SCC(=O)Nc2ccc(C#N)cc2)cc1
. | 14.0 | COc1ccc(-c2nc3ccccc3o2)cc1NC(C)=O

Laid out differently: results already given
O=C(O)C1CCCCC1C(=O)Nc1nncs1 (stereo not drawn)
  MgrA DNA FP = 2.5 | S aureus helic = 10.0

Cc1ccc(SCC(=O)Nc2ccc(C#N)cc2)cc1
  MgrA DNA FP = -0.4 | S aureus helic = .

O=C1CCOc2ccc(F)cc21
  MgrA DNA FP = -0.3 | S aureus helic = .

(next part)
MgrA DNA FP | S aureus helic | mol
. | 9.0 | CCOC(=O)C1=C(O)/C(=C/c2ccco2)SC1=Nc1ccc(F)cc1
. | 13.0 | O=C(/C=C/c1ccc(S(=O)(=O)N2CCOCC2)cc1)NC(=S)NC1CC1
. | -9.0 | CC1(C)OC(=O)C(=CNC(CCC(=O)O)C(=O)O)C(=O)O1 (stereo not drawn)
0.8 | -4.0 | CCc1nnc(NC(=O)Nc2ccc3c(c2)N(C)C(=O)CS3)s1
-0.6 | 10.0 | COc1cc(OC)c(OC)cc1CN1CCN(S(=O)(=O)c2ccc(NC(C)=O)cc2)CC1
. | -1.0 | CC1C(=O)N2CCCc3cc(S(=O)(=O)N4CCc5ccccc54)cc1c32 (stereo not drawn)
. | 12.0 | Cc1ccc(S(=O)(=O)c2nc(S(=O)(=O)c3ccccc3)sc2N2CCCC2)cc1
. | 2.0 | CCC(C)c1ccc(NC(=O)CN(CC)Cc2nc3ccccc3c(=O)[nH]2)cc1 (stereo not drawn)

Compounds listed so far with nitrogen in an aromatic ring:
MgrA DNA FP | S aureus helic | mol
8.2 | 22.0 | O=C(O)c1cccc(-n2cccc2C=C2C(=O)c3ccccc3C2=O)c1
2.5 | 10.0 | O=C(O)C1CCCCC1C(=O)Nc1nncs1 (stereo not drawn)
. | -14.0 | Cc1ccc(C)c(Cn2c(=O)n(CCCC(=O)NCc3ccco3)c(=O)c3sccc32)c1
. | 14.0 | COc1ccc(-c2nc3ccccc3o2)cc1NC(C)=O
0.8 | -4.0 | CCc1nnc(NC(=O)Nc2ccc3c(c2)N(C)C(=O)CS3)s1
. | 12.0 | Cc1ccc(S(=O)(=O)c2nc(S(=O)(=O)c3ccccc3)sc2N2CCCC2)cc1
. | 2.0 | CCC(C)c1ccc(NC(=O)CN(CC)Cc2nc3ccccc3c(=O)[nH]2)cc1 (stereo not drawn)

Further results
MgrA DNA FP | S aureus helic | mol
. | 4.0 | Cc1cccc(OCCNC(=O)c2sc3nc[nH]c(=O)c3c2C)c1
3.0 | . | CCOC(=O)CSc1nc2ccc(N)cc2s1
-2.4 | -10.0 | CCN(CC)S(=O)(=O)c1ccc2oc(C(=O)O)c(C)c2c1
0.3 | 0.0 | CCC(C)(C)NS(=O)(=O)c1cccs1
. | 26.0 | CCCn1c(C(C)O)nc2ccccc21 (stereo not drawn)
17.6 | 2.0 | CCOC(=O)c1cc2occc2n1CC(=O)N1CCCc2ccccc21
. | 1.0 | CCOC(=O)CCc1cccc2c1CCC2=O
-0.9 | 15.0 | Cn1ccnc1C(=O)c1cc(-c2ccco2)nc2ccccc12
-1.4 | -9.0 | CC1=CC(C)=NCCN1
. | 11.0 | CCOC(=O)c1cc(Cl)c(C(=O)OCC)cc1Cl
4.9 | 16.0 | N/C(=N\OC(=O)NC1CCCCC1)c1ccc(Cl)cc1
-0.6 | . | CCC(C)Sc1nc2c(c(=O)[nH]c(=O)n2C)n1C (stereo not drawn)
-1.3 | . | COc1ccc(OC)c(Nc2nc3nonc3nc2Nc2c(C)n(C)n(-c3ccccc3)c2=O)c1
-2.5 | 9.0 | O=C(O)CCC(=O)c1c[nH]c2ccccc12
. | -7.0 | Cc1cccc(N2CCN(C(=O)CSCc3c(C)noc3C)CC2)c1C
. | 3.0 | CC(OC(=O)c1cccn1C)C(=O)Nc1ccccc1C#N (stereo not drawn)
0.8 | 8.0 | Cc1cc(C)c(S(=O)(=O)NCC(=O)N2CCc3ccccc3C2)c(C)c1
. | 4.0 | O=C(COCc1cc(-c2ccco2)on1)NC1CCCC1
-2.8 | 6.0 | N#CCCN(C(=O)C12CC3CC(CC(Cl)(C3)C1)C2)c1ccccc1
-0.1 | 15.0 | Cc1ccc(NC(=O)CCc2nnc3ccc(NCCCc4ccccc4)nn23)cc1
. | -4.0 | Cc1c(/C=N/N=c2\sc3ccccc3n2C)n(C)n(-c2ccccc2)c1=O
. | 21.0 | c1ccn2c(c1)nc1nc3nonc3nc12
. | -9.0 | CC(C)n1c(CCC(=O)O)ccc1-c1ccc(Br)cc1
. | 8.0 | Cc1ccc(CN(C)C(=O)C2CC(=O)N(c3ccc4c(c3)OCCO4)C2)o1 (stereo not drawn)
. | 9.0 | O=C(CSc1nc2cc(Cl)ccc2s1)NC1CCS(=O)(=O)C1 (stereo not drawn)
. | 18.0 | O=C(c1ccco1)N1CCCC(C(F)(F)F)C1 (stereo not drawn)
. | -21.0 | CC1CNC(=O)NC1=O (stereo not drawn)
. | 2.0 | Cc1ccc(CC(C#N)C(N)=C(C#N)C#N)cc1 (stereo not drawn)
. | -13.0 | COCCN1Cc2cccc(C(=O)N3CCN(c4cccc(C)c4)C(C)C3)c2C1=O (stereo not drawn)
-1.0 | -3.0 | CCC(=O)Nc1nc(-c2ccc(C)c(C)c2)cs1
. | 19.0 | CC(NC(=O)C1CCCN(C(=O)c2cc3sccc3n2C)C1)c1ccccc1 (stereo not drawn)
. | 15.0 | Cn1ccnc1Sc1ncnc2sccc12
-3.0 | . | c1ccc(-c2csc3ncnc(NCc4ccccn4)c23)cc1
. | 18.0 | O=C(Nc1ccc2c(c1)OCCCO2)C1CCCN(C(=O)c2ccc(Cl)cc2)C1 (stereo not drawn)
3.7 | . | CN(C)C=Nc1nonc1-c1ccccc1
. | 5.0 | O=c1cc(-c2ccccc2)oc2c1Cc1ccccc1-2
12.5 | 1.0 | CN1CCN(CC(=O)N(c2ccccc2)c2ccc(O)cc2)CC1
-0.1 | 2.0 | CCC1CCCCN1C(=O)CC(=O)N1CCCCC1CC (stereo not drawn)
. | 1.0 | CCOC(=O)c1cc(NC(=O)CN2CCCC2)cc(C(=O)OCC)c1
. | -18.0 | O=C(CCCN1C(=O)/C(=C\c2ccco2)SC1=S)Nc1ccccc1C(F)(F)F
. | 8.0 | CCOC(=O)c1oc2ccc(CC/C(C)=N/NC(=O)c3ccoc3C)cc2c1C
0.1 | 1.0 | NCCC(=O)N1c2ccccc2Sc2ccccc21
. | 23.0 | O=C(CSc1nc2ccccc2o1)N1CCc2c([nH]c3ccccc23)C1C(F)(F)F (stereo not drawn)
. | 1.0 | COc1cc(NC(=O)CN2C(=O)c3ccccc3C2=O)c(OC)cc1Cl
-2.5 | . | CC(/C=N/O)=N\Nc1ccccc1
-5.1 | -6.0 | Cc1nnc(SCC(=O)O)o1
-0.1 | 5.0 | CCOC(=O)c1cc2c(=O)n3ccccc3nc2n(C)c1=NC(=O)/C=C/c1ccccc1
5.1 | 11.0 | CC(C)C1Cc2c(sc3[nH]c(=S)n(Cc4ccccc4)c(=O)c23)CO1 (stereo not drawn)
. | -10.0 | Cc1nc(Cc2nnc(SCc3cn4cccc(C)c4n3)o2)cs1
-7.1 | 7.0 | CC12CC3CC(C)(C1)CC(NCc1cccnc1)(C3)C2
0.2 | -3.0 | CCOC(=O)CC1NCCc2cc(OCC)c(OCC)cc21 (stereo not drawn)
3.0 | 5.0 | S=C(NCCc1ccccc1)NCCc1c[nH]c2ccccc12
-2.8 | . | O=C(NCCc1cccs1)C1CC1
2.7 | . | COc1ccc(NS(=O)(=O)c2ccc(Cl)s2)cn1
0.8 | 19.0 | N#C/C(=C\Nc1ccccc1)c1ccccc1
3.6 | 15.0 | Cc1[nH]nc2c1C1(C(=O)N2)C(C#N)=C(N)Oc2ccc(Br)cc21 (stereo not drawn)

Further entries:
MgrA DNA FP | S aureus helic | mol
. | -10.0 | CC1CCN(S(=O)(=O)c2ccc(C(=O)NCCSCc3ccco3)cc2)CC1
2.5 | . | COC(=O)c1sccc1OC(=O)c1c(F)cccc1F
-1.0 | . | O=c1c2c(c1=O)NCCCN2
-2.3 | . | CC(C)(C)n1[nH]c(-c2ccccc2)cc1=O
. | -28.0 | Nc1nc(CSCCO)nc(Nc2ccccc2)n1
. | 14.0 | O=C(CCc1nc(-c2ccc(Cl)cc2)no1)OCc1ccc(Br)cc1
0.9 | -19.0 | COc1ccc(O)c(C(=O)c2cnn(-c3ccccc3)c2)c1
1.9 | . | CCOC(=O)c1c(-c2ccccc2)oc2c1cc(OC(=O)c1ccccc1OC)c1ccccc12
-1.8 | 12.0 | CC1CCCCC1NC1=NCCS1 (stereo not drawn)
0.8 | 8.0 | N/C(=N\c1nc2ccccc2o1)NC(=O)c1ccccc1NC(=O)c1ccccc1
. | 4.0 | COc1ccc2c(c1)s/c(=N\NC(=S)NC(=O)CN1C(=O)CCC1=O)n2C
-1.2 | . | COc1cc(N2C(=O)CSC2c2ccccc2)c(OC)cc1Cl (stereo not drawn)
. | -4.0 | CC(OC(=O)C1CCCCC1)C(=O)Nc1ccc(Cl)cn1 (stereo not drawn)
-2.8 | 2.0 | Nc1ccccc1OC1CCCC1
. | -2.0 | CCN(CC)S(=O)(=O)c1cccc(C(=O)OCC(=O)c2cc(C)n(C3CC3)c2C)c1
. | 26.0 | O=C(O)CN1C(c2ccccc2O)Nc2ccc(Br)cc2C1c1ccccc1 (stereo not drawn)
1.4 | 0.0 | Cc1c(C(=O)N(C)c2ccccc2)sc2nc3n(c(=O)c12)CCCC3
1.8 | 3.0 | Cc1nonc1C(=O)N/N=C/c1ccccc1
. | 11.0 | O=C(CNC(=O)c1cc(N2CCOCC2)ccn1)Nc1ccc(F)c(F)c1F
-1.9 | 14.0 | N#Cc1cn(CC(=O)NCc2ccccc2)c2ccccc12
. | 21.0 | O=C1CN(C2CCS(=O)(=O)C2)C(=S)N1c1ccccc1 (stereo not drawn)
. | 12.0 | O=C(CCc1ccccc1)Nc1nc2ccc(F)cc2s1
. | -3.0 | COc1ccc(CCN(C)C(=O)Cn2nnc(-c3ccccc3Br)n2)cc1OC
. | 6.0 | O=S(=O)(Nc1nc(SCc2ccc(Cl)cc2)n[nH]1)c1cccs1
-0.2 | 8.0 | COc1ccccc1N1C(=O)C2C(c3ccc(F)cc3)NC(Cc3ccccc3)(C(=O)O)C2C1=O (stereo not drawn)
. | -12.0 | COC(=O)c1ccc(Cn2cnc3c(cnn3-c3ccccc3)c2=O)o1
. | 6.0 | Cc1ccc2c(c1)C(c1ccccc1)N(C(=O)CC(C)C)CC(=O)N2 (stereo not drawn)
. | 1.0 | N=c1n(CC(N)=O)c2ccccc2n1Cc1ccc(Cl)c(Cl)c1
-0.9 | . | O=c1oc2cccnc2n1Cc1ccccc1
. | -7.0 | O=C(O)c1ccc(S(=O)(=O)N2CCCCC2)cc1
. | 3.0 | Clc1cn2ccsc2n1
-1.3 | . | COc1ccc(C(=O)N2CCc3cc(OC)c(OC)cc3C2C)cc1 (stereo not drawn)
. | 20.0 | COC(=O)C1=C(NC(=O)C23CC4CC(CC(C4)C2)C3)CCS1
. | -3.0 | CN1CCN(c2nnc(NC(=O)Cn3c(=O)oc4ccccc43)s2)CC1
-0.1 | 4.0 | O=C(COc1ccccc1O)N1CCCC1
2.0 | . | O=[N+]([O-])c1ccc2ncccc2c1-n1cccc1
0.0 | . | O=C(Nc1ccc(OCc2ccccc2)cc1)N1CCN(C(=O)C2COc3ccccc3O2)CC1 (stereo not drawn)
2.2 | 8.0 | COc1ccccc1C1=NOC(C(=O)Nc2ccccc2C(F)(F)F)C1 (stereo not drawn)
. | 10.0 | Cc1ccc(S(=O)(=O)N2CCCC(C(F)(F)F)C2)s1 (stereo not drawn)
. | 2.0 | C=CCSc1nc2[nH]ncc2c(=O)[nH]1
0.8 | . | CC(C)NCC(O)Cn1ccc(C(F)(F)F)n1 (stereo not drawn)
-0.1 | 7.0 | O=C(NC1C2CC3CC(C2)CC1C3)c1ccc2c(c1)OCO2 (stereo not drawn)
-0.5 | . | CCCOC(=O)C1=C(C)NC2=C(C(=O)CC(c3ccc(OC)cc3)C2)C1c1cc(OC)c(OC)c(OC)c1 (stereo not drawn)
-1.9 | 7.0 | Cc1cc(C)c(NC(=O)C(C)Sc2nnnn2-c2ccccc2)c(C)c1 (stereo not drawn)
. | -16.0 | CC(=O)N1CCOc2ccc(S(=O)(=O)NCCc3ccccc3)cc21
. | -13.0 | COc1ccc(N2CCN(C(=O)CCc3ccccc3OC)CC2)cc1
. | -20.0 | CCOC(=O)c1nnc(Cc2ccc(F)cc2Cl)o1
. | -11.0 | CCOC(=O)c1sc(-c2ccc3c(c2)OCCO3)cc1N
1.3 | -18.0 | Cc1nnc(Nc2ccc(C(=O)O)cc2)[nH]c1=O
-1.5 | 11.0 | CC1CCN(CCCNC(=O)c2cc3c(=O)n(C)c4ccccc4c3n2C)CC1
-2.0&3.2 | . | CC(C)(C)NCC(O)c1cc(O)cc(O)c1 (stereo not drawn)
-2.0 | -2.0 | CCc1ccc(OCC(=O)Nc2ncn[nH]2)cc1
0.0 | 6.0 | CCNc1c(NS(=O)(=O)c2ccc(C3CCCCC3)cc2)c(=O)oc2ccccc12
. | -6.0 | COc1ccc(CC(=O)Nc2sccc2C(N)=O)cc1
